B2AR ag – activates human beta-2 adrenergic receptor causing internalization | 340,000 tested, 0.43% active | Am2.2-beta2AR cells, FAP receptor internalization, flow cytometry; reference of the scale not given here | response, % (test concentration not listed) | P07550 | AID 504454;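 active means response above a set limit, near 3 SD of response in nonfluorescent compounds, cut at about 42% in these data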;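 further: stock transfer was 100 nL into about 11 µL; a reference agonist was the positive control; negative values mostly stem from fluorescent compounds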
Target sequence (P07550 whole entry, looked up): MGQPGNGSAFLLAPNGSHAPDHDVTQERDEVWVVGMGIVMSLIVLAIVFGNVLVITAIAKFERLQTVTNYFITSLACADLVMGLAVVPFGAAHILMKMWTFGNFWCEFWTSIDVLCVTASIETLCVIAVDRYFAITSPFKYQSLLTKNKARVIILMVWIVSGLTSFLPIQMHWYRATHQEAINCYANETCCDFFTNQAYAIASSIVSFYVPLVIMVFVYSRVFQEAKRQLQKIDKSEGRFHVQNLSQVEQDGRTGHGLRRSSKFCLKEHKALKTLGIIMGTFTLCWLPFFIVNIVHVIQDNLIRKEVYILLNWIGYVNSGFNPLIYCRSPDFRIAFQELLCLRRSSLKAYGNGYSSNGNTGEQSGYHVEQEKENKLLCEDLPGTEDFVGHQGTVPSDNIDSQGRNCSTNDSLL
Ecoli rRNA inh – selective bacterial rRNA inhibition in E. coli; E. coli WT GFP vs humanized-ribosome RFP mutants, fluorescence, 24 h; active compounds read low; DMSO median 0, no signal -100; GFP signal change (wild-type ribosome), % (concentration not given with the values); 350,000 tested, 1.6% active; AID 720706;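 active means significant combined selectivity score with lowered wild-type GFP, culture density cut under 30%, mutant RFP and density less affected; inactive means any of these conditions unmet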; further: one replicate is shown; some compounds called inactive have numbers as strong as hits
Ecoli rRNA inh OD600 – recorded beside Ecoli rRNA inh, whose call it bears; OD600 change, %; measured here: OD600 growth;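 optical density of the mix in the first replicate; 0 = DMSO median and -100 = no signal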
Ecoli rRNA inh RFP – second read-out of Ecoli rRNA inh, no call of its own (marks repeat the call); RFP signal change, %; measured here: RFP humanized mutant strains;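 first replicate; 0 = DMSO median and -100 = no signal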
* marks the source's active call; other numbers are inactive results. Some of the compounds tested. The share of hits here may be higher or lower than overall.

Every second line gives: B2AR ag | Ecoli rRNA inh | Ecoli rRNA inh OD600 | Ecoli rRNA inh RFP
O=C(NOCc1ccccc1)c1cccc([N+](=O)[O-])c1
    -2.5 | 9.1 | 10.5 | -1.3
CCOc1ccc(S(=O)(=O)Nc2ccn(C)n2)cc1
    6.5 | 3.1 | 2.5 | -2.2
CC(=O)C1CCC2C3CC(C)C4(O)CC(=O)CCC4(C)C3C(O)CC12C (stereo unspecified)
    -0.9 | -0.6 | 9.2 | 4.4
O=C1Nc2c(Cl)cc(Cl)cc2C1=O
    8.7 | 0.9 | 0.6 | -0.2
Cc1ccc(S(=O)(=O)N2[C@@H](c3ccc(Cl)cc3)C(C(=O)O)=C[C@H]2CC2CCCC2)cc1
    6.7 | -6.0 | -14.7 | -1.9
Cc1ccc(S(=O)(=O)N2C[C@@H]3[C@H]4CC[C@H](C4)[C@@H]3[C@@H](C)[C@@H]2C2CCCCC2=O)cc1 (stereo partly specified)
    4.0 | -16.4 | -11.0 | -8.6
CCOc1ncnc2c1sc1nc3c(cc12)COC(C)(C)C3
    -4.5 | 7.2 | -0.8 | -1.8
CCN(CC)CCCC(C)Nc1nccc2cccc(Cl)c12 (stereo unspecified)
    5.8 | 8.1 | 8.3 | 3.3
COc1cccc(NC(=O)CN(C)C(=O)c2ccc(NC(=O)CC3SC(N4CCCC4)=NC3=O)cc2)c1 (stereo unspecified)
    13.2 | 11.6 | 0.1 | 7.3
COc1ccc(C(=O)N2CCN(c3cccc(Cl)c3)CC2)cc1S(=O)(=O)NC1CC1
    7.1 | -9.1 | -7.5 | -0.6
Nn1c(-c2cccc(O)c2)nnc1-c1cccc(O)c1
    -10.2 | 10.5 | 22.1 | 0.3
O=C(NC1CC1)c1cccc(NC(=O)C2CCCC2)c1
    -5.3 | 21.3 | 3.4 | 9.0
CN(C(=O)c1cccc(NC(=O)Cc2ccc(NC(=O)C3CCCN(C(=O)C4CCCC4)C3)cc2)c1)C1CC1 (stereo unspecified)
    -7.5 | 3.2 | 1.6 | -0.4
CC[C@]12c3[nH]c4cc(CCC(=O)N(C)C)ccc4c3CCN1C(=O)[C@@H](CC(=O)NCCc1ccccn1)C[C@@H]2C(=O)N1CCN(C(=O)C2CC2)CC1
    -1.5 | 4.7 | 15.8 | -2.6
O=C1OCCN1C(=O)[C@H]1[C@H](c2ccc(Cl)cc2)C(c2cccc(Cl)c2)=NN1c1ccc(Br)cc1
    -7.4 | 30.1 | 14.1 | 1.9
CC1CCCCC12NC(=O)N(CC(=O)OCc1ccccc1Cl)C2=O (stereo unspecified)
    -0.7 | -19.1 | -18.6 | -2.1
CCOC(=O)c1cc2nc(OCC)nc(OCC)c2[nH]1
    -11.3 | 1.8 | 22.7 | 7.3
COc1ccc(CN(CCC(C)C)S(=O)(=O)c2ccccc2Br)c(OC)c1
    0.4 | 4.5 | 8.0 | -8.9
CCN(CC)c1ccc(NC(=O)c2ccccn2)cc1S(=O)(=O)Nc1ccccc1OC
    11.3 | -3.6 | -4.7 | 0.8
CCOc1ccc(NC(=O)c2ccc3c(c2)C(=O)N(Cc2ccncc2)C3=O)cc1
    -0.9 | 5.0 | 16.3 | 0.4
COc1ccc2[nH]c3c(c2c1)CCN1C(=O)C(CC(=O)NC/C=C(\C)CCC=C(C)C)C[C@H](C(=O)N2CCOCC2)[C@@]31CCC1CCCC1 (stereo partly specified)
    0.8 | 7.8 | 11.1 | 0.1
COc1cc(C(C)=O)ccc1OCC(=O)Nc1cc(S(=O)(=O)N2CCOCC2)ccc1N1CCCC1
    -2.1 | -9.2 | 0.2 | 6.0
COc1ccc(-c2nn(-c3ccccc3)cc2C(=O)N(C)CC(=O)Nc2ccccc2Br)cc1
    0.8 | -9.0 | -24.9 | -1.3
CC1CCCN(C(=O)CNC(=O)c2sc3ccccc3c2Cl)C1 (stereo unspecified)
    -5.3 | -34.2 | -36.8 | -6.4
C=C(C)c1nc(Oc2ccccc2)nc(Oc2ccccc2)n1
    13.4 | 9.1 | 10.9 | 2.6
CCOc1ccccc1C=C1SC(=S)N(CC)C1=O
    3.2 | 8.2 | 13.6 | -4.1
O=C(Nc1cccc(C(=O)NC2CC2)c1)c1ccccc1
    -0.9 | -4.8 | 4.5 | 1.5
CC(C)C[C@@H](CN)NC(=O)c1nc[nH]c1C(=O)N[C@@H](Cc1c[nH]c2ccccc12)C(=O)CNC[C@H](C)NC(=O)c1nc[nH]c1C(=O)N[C@@H](CC(=O)O)C(=O)O
    -3.0 | 3.8 | 12.9 | -4.8
C[C@H](O)[C@@H]1C(=O)N2CCc3ccc(-c4cccc(F)c4)cc3[C@@H]2C[C@@H]1N(C)S(=O)(=O)c1ccccc1
    -7.3 | 5.9 | 2.9 | 7.5
CCN(C[C@H]1N[C@@](Cc2ccccc2)(C(=O)OC)[C@H]2C(=O)N(Cc3ccccc3)C(=O)[C@@H]12)C(=O)COC
    -3.9 | -3.0 | -1.6 | -2.4
COc1cc(OC)c(C(=O)NNC(=O)c2ccc(NS(=O)(=O)c3cccs3)cc2)cc1OC
    -11.0 | 0.1 | -13.0 | -5.0
Nc1nc2c(c(=O)[nH]1)C(c1cccc3ccccc13)C1=C(N2)c2ccccc2C1=O (stereo unspecified)
    -5.6 | 0.2 | 4.6 | 4.0
CCOc1ccc(OCCC(=O)N(CC)CC(=O)Nc2ccccc2OC)cc1
    -7.3 | -1.4 | -2.2 | 4.7
CCN(Cc1ccncc1)Cc1c(O)ccc2ccccc12
    -7.7 | 40.3 | -11.1 | -4.0
COc1cc(C(=O)OCc2csc(CC(=O)Nc3cc(C)ccc3C)n2)ccc1OC(F)F
    6.6 | 2.3 | 5.8 | -0.6
O=C(COC(=O)c1c(F)cccc1Cl)NC1CCCCC1
    -1.9 | 6.2 | 5.1 | 3.0
CC1(C)CCC(=NNC(N)=S)CC1
    -18.4 | 11.2 | 13.9 | 0.3
CCCCn1c(N)c(N(CCC(C)C)C(=O)COC(=O)c2cccnc2OCC)c(=O)[nH]c1=O
    7.6 | 9.5 | 11.4 | -3.1
c1ccc(CCn2cccc2)nc1
    -1.0 | 13.5 | 11.4 | 3.9
CCN(C(=O)CSc1nnc(-c2ccc(OC)cc2)n1N)c1c(N)n(Cc2ccccc2)c(=O)[nH]c1=O
    -1.5 | 6.6 | 10.5 | -1.8
COc1cc(C(c2c(NC(=O)c3ccco3)sc(C)c2C)N2CCOCC2)cc(OC)c1OC (stereo unspecified)
    9.7 | 5.9 | 0.1 | 1.8
O=C1C2C3C=CC(C3)C2C(=O)N1c1ncc([N+](=O)[O-])s1 (stereo unspecified)
    1.1 | 12.9 | 10.8 | 4.5
C/C(CCc1ccc2c(c1)OCO2)=N\N=C1\NC(=O)CC(C(=O)Nc2ccc(C(=O)O)cc2)S1 (stereo unspecified)
    -0.3 | 7.0 | 8.0 | -5.9
S=C(NCc1ccco1)NCc1ccco1
    -1.7 | 16.5 | 12.4 | 15.1
CC(=O)Nc1ccc2c(c1)Cc1c-2cc(Cl)c(NC(C)=O)c1Cl
    -1.8 | -0.1 | -3.4 | 0.0
CCOc1ccc(C(=O)NC2C(=O)N3C(C(=O)O)=C(COC(C)=O)CSC23)cc1OCC (stereo unspecified)
    4.7 | 7.2 | 7.5 | -2.8
Cc1ccc(C(=O)OCC(=O)NC2CCCCC2)cc1S(=O)(=O)N1CCCCC1
    -4.0 | 0.3 | -1.6 | -3.8
CCCCN1C(=O)C(C#N)CC2=C1CC(C)(C)CC2=O (stereo unspecified)
    3.4 | -5.3 | -5.6 | -1.0
COc1cc(/C=C(\CC(=O)O)c2nc3ccccc3s2)ccc1OCC(=O)Nc1ccccc1F
    1.4 | -24.7* | -16.1* | 2.3*
CCNc1cc2c(cc1O)CCC1C2CCC2(C)C(O)CCC12 (stereo unspecified)
    -33.8 | 3.4 | -1.4 | 1.1
CCN(C(=O)COC(=O)c1cccc(C)c1[N+](=O)[O-])c1c(N)n(Cc2ccccc2)c(=O)[nH]c1=O
    -11.5 | 13.9 | 11.0 | 2.5
CCN(CC(=O)Nc1c(F)cccc1F)C(=O)C1CCN(S(=O)(=O)c2ccccc2C(=O)OC)CC1
    0.2 | 3.5 | 3.6 | -1.3
COc1ccc2[nH]c3c(c2c1)CCN1C(=O)C(CC(=O)NCC24CC5CC(CC(C5)C2)C4)C[C@H](C(=O)N(C(C)C)C(C)C)[C@@]31C (stereo partly specified)
    5.1 | 2.0 | -6.7 | -5.4
COc1ccc(C(c2c(NC(=O)c3ccco3)sc(C)c2C)N2CCOCC2)cc1 (stereo unspecified)
    0.7 | 2.4 | -0.6 | 0.1
CN(Cc1cccc(Cl)c1Cl)C(=O)c1ccccc1SCC(=O)N1CCCC1
    -1.6 | -18.0 | -43.7 | -2.4
CC(CN1CCN(CC(C)C(=O)c2ccccc2)CC1)C(=O)c1ccccc1 (stereo unspecified)
    1.5 | 6.0 | 4.1 | -1.7
COc1ccc(OC)c(NC(=O)/C=C/c2ccc(S(=O)(=O)N3CCOCC3)cc2)c1
    3.1 | -3.5 | 3.4 | -2.0
CC(=O)Nc1ccc(S(=O)(=O)N(C)CC(=O)Nc2nc3ccccc3[nH]2)cc1
    -9.2 | 2.0 | 5.2 | -3.6
Clc1nc(Cl)c2ncn(-c3ccccc3)c2n1
    16.6 | -16.9* | 6.1* | 3.2*
CCOC(=O)C1=CN(Cc2cccc(F)c2)S(=O)(=O)NC1c1ccc(Br)cc1F (stereo unspecified)
    0.2 | -25.5 | -53.9 | 21.9

Three compounds out of the list above, ordered by the number in B2AR ag, falling:
Every second line gives: B2AR ag | Ecoli rRNA inh | Ecoli rRNA inh OD600 | Ecoli rRNA inh RFP
Clc1nc(Cl)c2ncn(-c3ccccc3)c2n1
    16.6 | -16.9* | 6.1* | 3.2*
CCN(CC(=O)Nc1c(F)cccc1F)C(=O)C1CCN(S(=O)(=O)c2ccccc2C(=O)OC)CC1
    0.2 | 3.5 | 3.6 | -1.3
CN(Cc1cccc(Cl)c1Cl)C(=O)c1ccccc1SCC(=O)N1CCCC1
    -1.6 | -18.0 | -43.7 | -2.4

Some of the entries so far, with each value named:
SMILES: CCOC(=O)C1=CN(Cc2cccc(F)c2)S(=O)(=O)NC1c1ccc(Br)cc1F (stereo unspecified)
  B2AR ag: 0.2
  Ecoli rRNA inh: -25.5
  Ecoli rRNA inh OD600: -53.9
  Ecoli rRNA inh RFP: 21.9

SMILES: CC(=O)Nc1ccc(S(=O)(=O)N(C)CC(=O)Nc2nc3ccccc3[nH]2)cc1
  B2AR ag: -9.2
  Ecoli rRNA inh: 2.0
  Ecoli rRNA inh OD600: 5.2
  Ecoli rRNA inh RFP: -3.6

SMILES: COc1cc(/C=C(\CC(=O)O)c2nc3ccccc3s2)ccc1OCC(=O)Nc1ccccc1F
  B2AR ag: 1.4
  Ecoli rRNA inh: -24.7*
  Ecoli rRNA inh OD600: -16.1*
  Ecoli rRNA inh RFP: 2.3*

Next structures follow:
Every second line gives: B2AR ag | Ecoli rRNA inh | Ecoli rRNA inh OD600 | Ecoli rRNA inh RFP
O=C1C(=Cc2ccco2)CCCC1=Cc1ccco1
    -27.9 | 15.1 | 14.4 | 9.6
O=S(=O)(CCNCCc1ccccc1)NCc1ccccc1
    1.4 | 7.8 | 9.4 | 3.8
Nc1ccc2c3c(cccc13)-c1ccccc1-2
    -970.2 | -10.5 | -2.9 | 0.8
CCc1nc(SCc2cc(=O)[nH]c3ccccc23)c2c(C)c(C)sc2n1
    5.0 | 0.8 | 8.6 | 12.7
O=C(C=Cc1ccco1)N1CCOCC1
    -1.1 | 16.5 | 11.4 | 7.0
CN(C)S(=O)(=O)c1ccc(C(=O)N2CCN(C(=O)C3CCCO3)CC2)cc1 (stereo unspecified)
    -0.2 | 22.2 | 18.0 | 2.0
CCOCCOC(=O)c1ccc(NC(=O)c2cc3ccccc3o2)cc1
    2.1 | -24.5 | -17.8 | -4.0
CC(C)c1ccc(/C=N/NC(=O)c2ccc(-n3cnnn3)cc2)cc1
    10.9 | -1.4 | 2.9 | 0.4
O=C1NC(c2cccc3ccccc23)Nc2ccccc21 (stereo unspecified)
    5.9 | 5.7 | 0.4 | -4.1
CCOC(=O)CNC(=O)C1(NC(=O)CNC(=O)OCc2ccccc2)CCCC1
    -0.7 | 6.8 | 5.5 | -0.7
CN(C(=O)c1ccc(NC(=O)Cc2cccc(NC(=O)C3CCN(C(=O)C4CCCC4)CC3)c2)cc1)C1CC1
    -5.2 | -2.5 | 7.4 | 1.4
Fc1cccc(CSc2ncnc3c2ncn3C2CCCCO2)c1 (stereo unspecified)
    -7.4 | -36.5 | -56.4 | -0.9
O=C(Cn1c(=O)ccn(Cc2ccccc2)c1=O)Nc1cccc(S(=O)(=O)N2CCOCC2)c1
    -8.4 | -7.7 | -7.6 | -2.6
CCCn1c(N)c(C(=O)CN(C)CC(=O)Nc2ccc(F)cc2)c(=O)[nH]c1=O
    6.6 | 5.7 | 13.1 | -2.9
CCOC(=O)C(Cc1ccnc2ccccc12)=NO
    3.0 | 3.6 | -4.5 | 1.1
CCOc1ccc(N2C(=O)C(C)CNC2=S)cc1 (stereo unspecified)
    0.9 | 6.5 | 9.2 | -3.8

An excerpt of these results, tab-delimited.
Molecule	B2AR ag	Ecoli rRNA inh	Ecoli rRNA inh OD600	Ecoli rRNA inh RFP
CCOC(=O)CNC(=O)C1(NC(=O)CNC(=O)OCc2ccccc2)CCCC1	-0.7	6.8	5.5	-0.7
CN(C(=O)c1ccc(NC(=O)Cc2cccc(NC(=O)C3CCN(C(=O)C4CCCC4)CC3)c2)cc1)C1CC1	-5.2	-2.5	7.4	1.4
Fc1cccc(CSc2ncnc3c2ncn3C2CCCCO2)c1 (stereo unspecified)	-7.4	-36.5	-56.4	-0.9

High-throughput results from PubChem.
